Source: PubChem BioAssay (ICCB-Longwood Screening Facility, Harvard Medical School)
Bm FixLJ act = activators of Burkholderia fixLJ two-component system, primary screen, B. multivorans, GFP reporter. AID 1918990, 2023. z-score (test concentration not listed). B. multivorans fixK-promoter GFP reporter, 18 h; hits give high values. 29,000 compounds, 0.3% hits;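 active = replicate mean overnight rise in green fluorescent reporter signal, 3 or more SD over negative controls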;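 also: score is relative to vehicle wells of the plate; 300 nL library stock went into each well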
An asterisk follows results filed as active; & = joins results of further samples. Some of the compounds tested, so the mix of outcomes need not match the whole.

Screening COc1ccc(NC(=O)CCS(=O)(=O)c2nc(-c3ccc4c(c3)OCO4)cc(C(F)(F)F)n2)c(OC)c1 returned Bm FixLJ act -2.8.
For CCOc1ccc(-c2noc(CSc3nnc(Cc4ccccc4)n3-c3ccc(F)cc3)n2)cc1 the results were Bm FixLJ act -0.19.
Cc1nc(C)c(CC(=O)NC2c3ccccc3CC2O)s1 (stereo not drawn) was read as Bm FixLJ act -0.9.
Screening Cc1cc(C(=O)NCc2cccnc2Oc2ccccc2F)ccc1O returned Bm FixLJ act -0.98.
`CCOC(=O)c1ccccc1NC(=O)c1nn(-c2ccc(OC)c(Cl)c2)c(=O)c2c1c1ccccc1n2C` gave Bm FixLJ act -0.12.
`Cc1nc(C)c(C(=O)NCC2CCS(=O)(=O)CC2)s1` gave Bm FixLJ act 0.19.
Screening Nc1ccn(C2O[C@H](CO)[C@@H](O)[C@@H]2O)c(=O)n1 (stereo partly drawn) returned Bm FixLJ act 0.18.
For CCc1nc2c(cnn2-c2ccc(C)cc2)c(=O)n1-c1ccc(C)cc1 the results were Bm FixLJ act 0.05.
`CN1CCN(C(=O)c2ccc3c(c2)N(Cc2c(F)cccc2Cl)C(=O)c2ccccc2S3)CC1` gave Bm FixLJ act -1.3.
For Cc1ccccc1OCCCCn1c(C2CC(=O)N(c3ccccc3Cl)C2)nc2ccccc21 (stereo not drawn) the results were Bm FixLJ act 0.86.
For CCOC(=O)c1ccccc1NC(=O)Cn1c(=O)n(-c2cccc(C)c2)c(=O)c2c1c1cc(C)ccc1n2C the results were Bm FixLJ act 0.3.
Screening CNc1ncc(CN(C)C(=O)Nc2cccc(N3CCCC3)c2C)cn1 returned Bm FixLJ act -1.2.
Screening CCOC(=O)c1ccc2ncc(C(=O)OCC)c(Nc3ccc(C)c(Br)c3)c2c1 returned Bm FixLJ act -0.16.
`CCCc1nnc(N2CCN(c3ccccc3OCC)CC2)o1` gave Bm FixLJ act -1.6.
For Cc1ccc(C)c(-c2csc(-c3c(N)c(C(=O)c4ccc5c(c4)OCO5)n4ccccc34)n2)c1 the results were Bm FixLJ act -1.7.
`Cc1ccccc1OCCNC(=O)N(C)CCc1noc(C(C)C)n1` gave Bm FixLJ act 1.1.
`COc1cccc(-c2nc(CS(=O)(=O)CC(=O)N3CCN(c4cc(C)ccc4C)CC3)c(C)o2)c1` gave Bm FixLJ act 2.
COc1cc(OC)c(Nc2nc3ccccc3nc2-n2nc(C)cc2C)cc1Cl was read as Bm FixLJ act 0.61.
Screening Cc1ccccc1-c1nc2cc(NC(=O)c3cccc(OCCC(C)C)c3)ccc2o1 returned Bm FixLJ act -1.3.
Screening O=C(CCCN1CCCCCC1)NC(Cc1ccccc1)C1CC(O)C1 (stereo not drawn) returned Bm FixLJ act -1.8.
Cc1ccc(CNc2nc3nc(C)c(Cl)c(C)n3n2)cc1 was read as Bm FixLJ act 0.15.
For CCCOc1cccc(-c2cc(-c3cnn(C)c3)c(C#N)c(N)n2)c1 the results were Bm FixLJ act 0.52.
`COc1ccccc1Oc1ccc(NC(=O)CCc2ccnn2C)cc1` gave Bm FixLJ act 1.2.
Screening Cc1[nH]cnc1CN1CCN(Cc2ccccc2)C2CS(=O)(=O)CC21 (stereo not drawn) returned Bm FixLJ act 0.38.
`CCOc1ccc2c(c1)c(=O)c(S(=O)(=O)c1ccc(CC)cc1)cn2Cc1cccc(Cl)c1` gave Bm FixLJ act 1.1.
For Nc1ccc2oc(-c3ccccc3Br)nc2c1 the results were Bm FixLJ act -1.3.
For Cc1ccc(F)cc1NC(=O)CSc1nc(-c2cccs2)cc(C(F)(F)F)n1 the results were Bm FixLJ act 0.85.
For CCOC(=O)c1sc(NC(=O)c2nc(SCC)ncc2Cl)c(C(=O)OCC)c1C the results were Bm FixLJ act 1.4.
`COc1ccc(Cl)cc1NC(=O)Cn1nc(C(F)(F)F)c2c1CCC2` gave Bm FixLJ act -1.7.
Screening CN(C)CCCNC(=O)N(C)Cc1cc2cc(F)ccc2[nH]1 returned Bm FixLJ act -0.08.
Screening CCc1ccc(C2NC(=O)c3[nH]nc(-c4cccc(OC)c4)c32)cc1 (stereo not drawn) returned Bm FixLJ act -0.06.
`CCCNc1c(NC(=O)c2ccc(OCCC)cc2)c(=O)oc2ccccc12` gave Bm FixLJ act -1.3.
`O=C(C1CC1)N1CCCC(CNC(=O)N(Cc2ccsc2)C2CCCC2)C1` (stereo not drawn) gave Bm FixLJ act -1.9.
CCc1ccc2ncc(S(=O)(=O)c3ccc(Cl)cc3)c(N3CCN(CC)CC3)c2c1 was read as Bm FixLJ act -0.73.
Screening COc1ccccc1NC(=O)Cn1c(=O)n(CC2CCC(C(=O)NCCc3ccccc3)CC2)c(=O)c2ccccc21 (stereo not drawn) returned Bm FixLJ act 0.45.
`COc1cccc(Cn2c(C)c(CNCc3ccccc3Cl)c(C(=O)O)c2C)c1` gave Bm FixLJ act -2.2.
`O=C(CNC(=O)c1ccc(Cl)cc1)NO` gave Bm FixLJ act 1.3.
For CN1CCN(c2ccc(C(=O)NCCCc3nc4ccccc4o3)cc2)CC1 the results were Bm FixLJ act -2.2.
For COc1ccccc1N1CCN(c2c3c(nc4nncn24)CCC3)CC1 the results were Bm FixLJ act -1.9.
CCOc1ccc(CNCCNC(=O)c2nonc2N)cc1 was read as Bm FixLJ act -0.3.
CCc1ncc(C(=O)NC(c2ccncc2)c2ccc(C)cc2)cn1 (stereo not drawn) was read as Bm FixLJ act -0.03.
`O=C(NCCc1ccc(Cl)cc1)c1ccc2c(c1)N(Cc1ccccc1)CCS2` gave Bm FixLJ act 0.82.
Screening CN1C(=O)C(CC(=O)NCCc2ccncc2)(Cc2ccccc2)c2ccccc21 (stereo not drawn) returned Bm FixLJ act 0.53.
`Cc1cc(C)n(CCc2nc3c4ccccc4nc(N4CCN(c5ccccc5F)CC4)n3n2)n1` gave Bm FixLJ act -0.74.
CCN(C(=O)Cn1ncc2c(=O)oc3ccc(C)cc3c21)c1cc(OC)ccc1OC was read as Bm FixLJ act -1.
`COc1ccc(C(=O)Oc2c(Sc3ccccc3)c(C)nn2-c2ccccc2)cc1OC` gave Bm FixLJ act 0.67.
`O=C(NCCc1ccccc1)c1ccc(CSc2nc3ccncc3n2Cc2ccc(F)cc2)cc1` gave Bm FixLJ act -4.8.
For Cc1ccc(N(CC(=O)Nc2cccc(Cl)c2C)S(=O)(=O)c2c(C)noc2C)cc1 the results were Bm FixLJ act -0.52.
COc1ccc(NC(=O)CCCS(=O)(=O)c2nc(-c3ccc(OC)c(OC)c3)cc(C(F)(F)F)n2)cc1OC was read as Bm FixLJ act -0.36.
Screening CCn1c(=O)c(=O)n(CC)c2cc(N3CCCCC3)c(NC(=O)c3ccc(OC)c(OC)c3)cc21 returned Bm FixLJ act 0.2.
Screening Cc1ccc(CNC(=O)c2cc3c(=O)oc4ccc(C)cc4c3s2)cc1 returned Bm FixLJ act -0.16.
CC(CCn1cccn1)NC(=O)N1CCOc2ccccc2C1 (stereo not drawn) was read as Bm FixLJ act -1.3.
COc1ccccc1N1CCN(C(=O)c2oc3ccccc3c2N)CC1 was read as Bm FixLJ act -2.2.
`CCOc1ccc(NC(c2ccc(Cl)cc2)c2nnc(-c3cccc(F)c3)o2)cc1` (stereo not drawn) gave Bm FixLJ act -0.4.
COC(=O)c1c(C)oc2ccc(N(C(=O)c3ccncc3)S(=O)(=O)c3ccc(OC)cc3)cc12 was read as Bm FixLJ act -4.
COc1ccc(C(=O)Nc2ccc(-c3nc4ncccc4o3)cc2)cc1 was read as Bm FixLJ act -0.16.
CCOC(=O)c1[nH]c2ccccc2c1NC(=O)c1cc(Cl)ccc1Cl was read as Bm FixLJ act 0.64.
For COc1ccc(NC(=O)N2CCCC(Cn3ccnc3)C2)cc1NC(C)=O (stereo not drawn) the results were Bm FixLJ act 0.92.
COc1ccc(CCNC(=O)c2ccc3c(c2)N(Cc2ccccc2F)C(=O)c2ccccc2S3(=O)=O)cc1OC was read as Bm FixLJ act 2.8.
For CCCOc1ccccc1C(=O)N1CCCCC1CCN1CCOCC1 (stereo not drawn) the results were Bm FixLJ act -1.2.

For reference, part of the list above.
CCc1ncc(C(=O)NC(c2ccncc2)c2ccc(C)cc2)cn1 (stereo not drawn) was read as Bm FixLJ act -0.03.
`O=C(NCCc1ccc(Cl)cc1)c1ccc2c(c1)N(Cc1ccccc1)CCS2` gave Bm FixLJ act 0.82.
Screening CN1C(=O)C(CC(=O)NCCc2ccncc2)(Cc2ccccc2)c2ccccc21 (stereo not drawn) returned Bm FixLJ act 0.53.
`Cc1cc(C)n(CCc2nc3c4ccccc4nc(N4CCN(c5ccccc5F)CC4)n3n2)n1` gave Bm FixLJ act -0.74.
CCN(C(=O)Cn1ncc2c(=O)oc3ccc(C)cc3c21)c1cc(OC)ccc1OC was read as Bm FixLJ act -1.
`COc1ccc(C(=O)Oc2c(Sc3ccccc3)c(C)nn2-c2ccccc2)cc1OC` gave Bm FixLJ act 0.67.
`O=C(NCCc1ccccc1)c1ccc(CSc2nc3ccncc3n2Cc2ccc(F)cc2)cc1` gave Bm FixLJ act -4.8.
For Cc1ccc(N(CC(=O)Nc2cccc(Cl)c2C)S(=O)(=O)c2c(C)noc2C)cc1 the results were Bm FixLJ act -0.52.
COc1ccc(NC(=O)CCCS(=O)(=O)c2nc(-c3ccc(OC)c(OC)c3)cc(C(F)(F)F)n2)cc1OC was read as Bm FixLJ act -0.36.
Screening CCn1c(=O)c(=O)n(CC)c2cc(N3CCCCC3)c(NC(=O)c3ccc(OC)c(OC)c3)cc21 returned Bm FixLJ act 0.2.
Screening Cc1ccc(CNC(=O)c2cc3c(=O)oc4ccc(C)cc4c3s2)cc1 returned Bm FixLJ act -0.16.

Other records:
`C=C(C)Cn1c(SCC(=O)Nc2cccc(C)c2)nc2sc3c(c2c1=O)CCCC3` gave Bm FixLJ act 0.58.
`CC(C)NS(=O)(=O)c1ccc(OCC(=O)N2CCN(c3ccccc3F)CC2)cc1` gave Bm FixLJ act -0.39.
O=C(CN1C(=O)COc2ccc(S(=O)(=O)N3CCCCCC3)cc21)N1CCN(c2ccc(Cl)cc2)CC1 was read as Bm FixLJ act 2.1.
`CCn1c(C(=O)N2CCC(C(=O)NCCc3ccc(C)cc3)CC2)cc2sccc21` gave Bm FixLJ act -0.53.
`CCOc1ccc(C(=O)c2cn(Cc3ccccc3OC)c3cc4c(cc3c2=O)OCCO4)cc1` gave Bm FixLJ act 0.09.
Screening O=C(Cc1ccccc1)Nc1sc2c(c1C(=O)Nc1ccccc1Cl)CCC2 returned Bm FixLJ act -2.
`Cc1ccc(N2CCN(C(=O)c3ccc(Nc4nc5ccccc5n5nnnc45)cc3)CC2)c(C)c1` gave Bm FixLJ act 0.57.
`COc1ccccc1-c1cc(C(F)(F)F)nc(S(=O)(=O)CCCC(=O)Nc2ccc(F)cc2F)n1` gave Bm FixLJ act -0.87.
CC(C)NC(=O)Cn1ncn2c(cc3cc(F)ccc32)c1=O was read as Bm FixLJ act -1.1.
For CCOC(=O)c1ccc(NC(=O)c2ccc3c(c2)NC(=O)c2ccccc2S3)cc1 the results were Bm FixLJ act -1.5.
For CCC(=O)Oc1ccc(-c2nc3ccccc3c(=O)o2)cc1 the results were Bm FixLJ act -1.2.
Cc1cc(C(F)(F)F)nn1-c1nc(-c2ccccc2)cc(C(F)(F)F)n1 was read as Bm FixLJ act -1.7.
Cc1cc(C)n(CCc2nc3c4ccccc4nc(N4CCN(c5ccccc5)CC4)n3n2)n1 was read as Bm FixLJ act -0.31.
Screening CCc1ccc(S(=O)(=O)c2nnn3c2nc(NCCNC(C)=O)c2cc(Cl)ccc23)cc1 returned Bm FixLJ act -1.4.
For CCOc1ccc(NC(=O)Cn2c(=O)n(-c3cccc(Cl)c3)c(=O)c3c2c2cc(C)ccc2n3C)cc1 the results were Bm FixLJ act 2.
CCOC(=O)c1cnc2ccc(Cl)cc2c1Nc1ccc(OCC)cc1 was read as Bm FixLJ act -0.54.
For CCOc1ccc(OCC)c(Nc2nc3ccccc3n3nnnc23)c1 the results were Bm FixLJ act -1.2.
Screening CCc1ccc(O)c(C(=O)c2cnc3cc(-c4ccc(C)cc4)nn3c2)c1 returned Bm FixLJ act 1.3.
Screening O=C(NCC(c1ccccc1)c1ccccc1)c1nn(-c2ccccc2F)nc1CO returned Bm FixLJ act 1.6.
For Cc1nc(C(C)N(C)C(=O)NCc2cc(-c3ccco3)on2)c(C)s1 (stereo not drawn) the results were Bm FixLJ act -0.63.
For CCCN1C[C@H](CSC)C[C@@H]2c3cccc4[nH]cc(c34)C[C@H]21 the results were Bm FixLJ act -1.7&-4.2.
Screening CCN1Cc2nc(OC)c(CNC(=O)C(C)Cn3cccn3)cc2C1=O (stereo not drawn) returned Bm FixLJ act -0.79.
Screening COc1ccc(OC)c(CNC(=O)N2CCN(CCn3cncn3)CC2)c1 returned Bm FixLJ act -2.4.
`Cc1ccccc1C(=O)Nc1nc2nc(C)c(C)c(=O)n2[nH]1` gave Bm FixLJ act -1.1.
`CCOc1ccc(-c2nc3ccccc3c(=O)o2)cc1` gave Bm FixLJ act -0.76.
For CCOC(=O)c1cccc(NC(=O)N2Cc3ccccc3Oc3ncccc32)c1 the results were Bm FixLJ act -0.11.
CC(=O)c1ccc(NC(=O)CCc2c(C)nc3c(c(C)nn3-c3ccc(C)cc3)c2C)cc1 was read as Bm FixLJ act -2.2.
COCCCNC(=O)CCn1c(=O)c2ccccc2n(CC(=O)Nc2cc(Cl)ccc2OC)c1=O was read as Bm FixLJ act 0.18.
Screening Cc1ccc(CN(Cc2ccco2)C(=O)c2ccc(Cl)cc2)o1 returned Bm FixLJ act 0.03.
Screening COc1ccc(-c2[nH]ncc2CNC(=O)N2CCN3C(=O)OCC3C2)cc1 (stereo not drawn) returned Bm FixLJ act -1.2.
Cc1ccccc1NC(=O)Cn1nnc(C(=O)NCCc2ccccc2)c1N was read as Bm FixLJ act -0.11.
CCC1(C)CC(=O)NC1=O (stereo not drawn) was read as Bm FixLJ act -1.3.
`COc1ccccc1N1CCN(CC(O)COc2ccc(C)cc2C(C)(C)C)CC1` (stereo not drawn) gave Bm FixLJ act 0.39.
`COc1ccccc1CNC(=O)Cn1c(=O)oc2ccccc21` gave Bm FixLJ act -0.67.
Screening O=C(CCc1nc(-c2ccccc2)no1)NCc1cc(-c2ccccc2)n[nH]1 returned Bm FixLJ act 0.09.
`Cc1n[nH]c(C)c1CCN(C)C(=O)NCCc1ccc(F)cc1` gave Bm FixLJ act -1.6.
